Compound activity (PubChem)
TRPML1 agonist: human mucolipin-1 channel agonism; Q9GZU1; TRPML1-expressing cells, Ca2+ dye fluorescence, FDSS; host cell line not named in the record; reference of the full effect not given here; activation, % (no concentration beside the values); hit rate 0.12% among 410,000; AID 624414; in the data active = activation above about 50%; inconclusive = about 30% to 50%; inactive = below about 30%; also: 0% is about no effect; the text of the record puts the active cut at 80%
Target sequence (Q9GZU1 whole entry, looked up): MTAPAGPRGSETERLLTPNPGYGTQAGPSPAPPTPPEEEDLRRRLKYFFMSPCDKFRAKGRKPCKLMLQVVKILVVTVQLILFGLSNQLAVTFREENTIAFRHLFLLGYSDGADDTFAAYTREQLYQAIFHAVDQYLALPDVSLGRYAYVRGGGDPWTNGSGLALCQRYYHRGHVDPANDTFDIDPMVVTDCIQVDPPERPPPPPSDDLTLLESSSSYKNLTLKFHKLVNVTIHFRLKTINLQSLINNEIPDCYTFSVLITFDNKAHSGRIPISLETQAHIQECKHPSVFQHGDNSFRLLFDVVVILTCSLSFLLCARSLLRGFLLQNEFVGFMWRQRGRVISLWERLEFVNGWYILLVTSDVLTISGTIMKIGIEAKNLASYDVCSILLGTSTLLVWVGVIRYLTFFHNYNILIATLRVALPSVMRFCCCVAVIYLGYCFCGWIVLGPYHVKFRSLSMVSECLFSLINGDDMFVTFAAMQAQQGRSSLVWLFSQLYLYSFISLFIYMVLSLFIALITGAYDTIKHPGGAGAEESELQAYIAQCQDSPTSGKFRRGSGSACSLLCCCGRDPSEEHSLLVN
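Agonist activity was taken from a 110 s kinetic Ca2+ dye read on the FDSS after pinning compounds onto TRPML1-DL cells. The cells were seeded at 1,500/well with Tet inducer, incubated about 16 h, then dye-loaded at room temperature.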
ClpP mod: qHTS Assay for Activators of ClpP | ATP-dependent Clp protease proteolytic subunit (Bacillus subtilis (strain 168)), P80244 | purified B. subtilis ClpP, FRET peptide cleavage, 20 min | Potency, µM (series often up to 57.5 µM), without a hit: at the top dose activity change, negative = active | hit rate 1.9% among 340,000 | AID 651965, 2013; active = well fitted falling curve with a large enough effect; inconclusive = small, poorly fitted or top-dose-only effect; inactive = no such curve, though single readings can be large or run the other way; also: potency is read from the fitted curve at half-maximal effect; the source files actives as falling curves though it sought activators and does not explain the sign; nearly all actives have a fitted effect of over 65% in size; many hits overshoot -100%
Target sequence (P80244 whole entry, looked up): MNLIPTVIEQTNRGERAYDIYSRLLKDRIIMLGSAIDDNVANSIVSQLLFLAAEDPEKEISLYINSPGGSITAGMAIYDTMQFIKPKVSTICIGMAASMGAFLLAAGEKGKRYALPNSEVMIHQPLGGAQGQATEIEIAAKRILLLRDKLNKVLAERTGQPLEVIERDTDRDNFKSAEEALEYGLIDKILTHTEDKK
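Purified B. subtilis ClpP, 10 microg/mL final in Tris/HCl pH8 with KCl, BSA, glycerol and Tween-20, cleaved an Abz/nitrotyrosine-quenched decapeptide. Fluorescence (ex 320, em 430) was read at 0 and 20 min at room temperature. Delta was normalized to 5.8 microM ADEP and DMSO/no-enzyme controls.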
TRPML1 blocker: human mucolipin-1 channel inhibition. Q9GZU1. TRPML1-inducible cells, Ca2+ dye fluorescence, FDSS; stronger effect = lower value; inhibition of EC80 agonist-evoked calcium signal. activity change, negative = inhibition, % (concentration not given with the values). hit rate 0.02% among 390,000; in the data active means activity change below about -50%; inconclusive means about -30% to -50%; inactive means above about -30%;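 also: stimulus is agonist 54-4 at its EC80 concentration; % is scaled to controls: 0 for no effect and ±100 for the full control effect; compound concentration not given in the record; the text of the record puts the active cut at -80%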
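Tet-induced TRPML1-DL cells loaded with Ca8 no-wash calcium dye were read kinetically on FDSS. Compound addition was followed by EC80 agonist 54-4 (4 uM final); inhibition was read over 110 s.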
gsp antagonist: antagonizes gsp, the McCune-Albright syndrome mutation | Potency, µM (series often up to 76.9 µM), inactives show at the highest dose activity change, negative = inhibition, hits mostly inhibitors | gsp-mutant cells, cAMP HTRF, 30 min; control for the full effect not named in the record | hit rate 0.4% among 340,000; active = falling curve of any shape with a large fitted effect; inconclusive = falling curve, mostly with a smaller effect; inactive = flat or rising curve; cell line not stated here;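 also: intracellular cAMP measured with PDE inhibitor Ro 20-1724 present during compound exposure; potency is read from the fitted curve at half-maximal effect; % is scaled to controls: 0 for no effect and ±100 for the full control effect; nearly all actives have a fitted effect of over 65% in size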
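HTRF cAMP read-out (cAMP-d2 plus anti-cAMP antibody-K in lysis buffer, 30 min RT). Before lysis, cells are exposed to compounds with […] for 30 min at 37C in DPBS containing Ca/Mg, BSA and Tween 20.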
Menin MLL FP FL: displaces fluorescein MLL peptide from human menin; Fluorescence polarization, fluorescein-MLL peptide displacement from menin; FP activity change, % at 61.4 µM; 290,000 tested, under 10 active; AID 1766; inconclusive = falling polarisation curve, or a change in total fluorescence; inactive = total fluorescence flat and polarisation flat or rising; no compound was filed as active; the % refers to the polarisation; negative = inhibition;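 also: % of control where 0% means no effect; inhibitors lower the polarisation; unlabelled MLL peptide was the positive control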
gsp agonist: gsp mutant agonism. hit rate 0.13% among 340,000. Potency, µM (top dose mostly 76.9 µM), without a hit: top-dose activation (cAMP increase), most hits filed as activators. AID 624287. gsp mutant cells, cAMP HTRF, 30 min; control for the full effect not named in the record; active = well fitted activation curve with a large enough effect; inconclusive = small, poorly fitted or top-dose-only effect, or another doubt; inactive = no such curve, though single readings can be large or run the other way; cell line not stated here;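 also: phosphodiesterase inhibitor Ro 20-1724 added with compounds to block cAMP breakdown; potency is read from the fitted curve at half-maximal effect; nearly all actives have a fitted effect of over 60% in size; about a fifth of the inactives were tested at one dose only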
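Cells in DMEM/10% FBS with G418 were pretreated with compounds in DMSO plus […] (300 uM stock) for 30 min at 37C. cAMP was measured by HTRF (cAMP-d2 plus anti-cAMP antibody-K) after 30 min at room temperature.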
* hit, by the source's call; ? = inconclusive; nt = not tested or not shown; & = joins results of further samples; [ ] = dose if it differs, or a comment.

SMILES | TRPML1 agonist | ClpP mod | TRPML1 blocker | gsp antagonist | Menin MLL FP FL | gsp agonist
N#Cc1c(C(F)(F)F)cc(-c2cccs2)nc1SCc1ccc(Cl)nc1 | 0.8 | 399% | 23 | 13% | -1.8 | -3%
CC(OC(=O)c1ccc(NC(=O)CC#N)cc1)C(=O)Nc1nc(-c2ccccc2)cs1 (configuration not stated) | -0.1 | nt | -5 | ? | nt | -4%[15.4 µM]
O=C(Nc1ccccc1OC(=O)c1ccc(Cl)cc1)c1ccc(Cl)cc1 | 0.8 | ? | -4 | -8% | 1.6 | -7%[15.4 µM]
Cc1ccc(C(=O)CN(C(=O)c2ccc(Cl)c(Cl)c2)N2C(=O)C3C4C=CC(C4)C3C2=O)cc1 (configuration not stated) | 0.6 | -0.7% | -14 | -16% | -1.7 | -39%[inhibitor]
COc1cccc(/C=C/C(=O)OCC(=O)Nc2ccc(N3CCOCC3)cc2)c1OC | -1.0 | 0.1% | -21 | -8% | 5.8 | 18%[15.4 µM]
CCOc1ccc2nc(N3C(=O)/C(=C/c4ccc(Cl)cc4)NC3=S)sc2c1 | 0.0 | 1.3% | 7 | 12% | 7.2 | -17%[15.4 µM]
COc1ccccc1-c1sc2cc3c(cc2c1-c1ccc2c(c1)OCO2)OCO3 | 1.4 | 4.1% | -19 | -11% | nt | nt
CCOCCCN(C(=O)CCC(=O)Nc1cc(C)on1)C(C(=O)NC(C)(C)C)c1ccccc1Cl (configuration not stated) | -0.3 | nt | -2 | -12% | 1.4 | -3%[15.4 µM]
CCn1c(-c2csc(C(C)C)c2)n[nH]c1=S | 0.9 | -6.6% | 19 | -3% | 2.3 | 14%
COC(=O)C1=CN(Cc2ccc(C)cc2)C=C(C(=O)OC)C1c1cc(OC)c(OC)c(OC)c1 | 0.9 | 3.7% | 11 | 4% | 0.1 | 8%
Cc1cccc(C(C)C)c1NC(=O)COC(=O)COc1ccc2c(C)cc(=O)oc2c1 | -0.5 | 1.2% | -3 | -1% | 7.8 | -4%[15.4 µM]
COc1ccc(CCNc2ncnc3c2cnn3-c2ccc(C)c(Cl)c2)cc1 | -0.1 | -14% | -24 | nt | nt | nt
CC[C@@]12C(=O)N(c3cccc(C)c3)C(=O)N1[C@H](c1ccc(Br)cc1)[C@@H]1C(=O)N(C(C)(C)C)C(=O)[C@@H]12 | 1.4 | -1.3% | 7 | -12% | -0.8 | -30%[inhibitor]
CC1(C)Cc2c(cnn2-c2cccc(F)c2)C(NC(=O)CCc2cnccn2)C1 (configuration not stated) | 4.1 | -1.3% | -12 | 0% | 7.2 | -8%
COc1ccc(C(CC(=O)N2CCN(c3ccccc3)CC2)c2c(O)cc(OC)cc2OC)cc1 (configuration not stated) | 2.4&2.3 | -5.3% | 24&40 | -24% | 1.2&-3.4 | nt
COc1cc(NC(=O)CSc2nc(-c3ccco3)cc(C(F)(F)F)n2)cc(OC)c1OC | -0.6 | -0.4% | 9 | nt | nt | nt
COc1ccc(-c2cc(C(F)(F)F)n3nc(C(=O)Nc4cccc(C(F)(F)F)c4)c(Br)c3n2)cc1 | -0.6 | -1.3% | 19 | nt | nt | nt
Cc1noc(C)c1COc1ccccc1C(=O)NCc1ccccc1Cl | 2.3 | -11% | 50 | 1% | nt | ?
Cn1c(=O)[nH]c(=O)c2c1nc(N1CCCC1)n2CCCSc1nc2ccccc2o1 | -0.7 | 0.7% | 1 | -11% | 0.8 | -28%
CCCC(=O)Nc1ccc(C(=O)COC(=O)C2CC2C)cc1 (configuration not stated) | -0.3 | -2.0% | 8 | 4% | nt | 4%
NC(=O)CSc1nnc(-c2ccccc2)c(-c2ccccc2)n1 | 1.5 | 0.5% | 28 | -6% | 1.4 | ?
COc1cccc(CN(C)CCCn2cnc(C(=O)Nc3ccc(C)c(C)c3)n2)c1 | 2.3 | 1.1% | 27 | 9% | nt | nt
COc1ccc(-c2nn(Cc3ccccc3)cc2C(=O)N2CCN(c3ncccn3)CC2)cc1OC | 0.1 | -12% | -11 | -1% | nt | -2%
COCCn1c(SCC(=O)c2ccc(F)cc2)nc2cc(C(=O)NC3CCCC3)ccc2c1=O | -0.7 | 0.3% | 11 | nt | nt | nt
COCCSc1nnc(-c2cnccn2)o1 | -0.2 | -23% | 12 | 18% | 0.6 | 2%
CCCCn1c(N)c(N(CC(C)C)C(=O)c2cccc(S(=O)(=O)N3CCCCC3)c2)c(=O)[nH]c1=O | 2.0 | nt | 0 | 3% | nt | -26%[15.4 µM]
NC(=O)CN1C(=O)C(=O)N(Cc2ccccc2)C1=O | -0.6 | -1.0% | 4 | -2% | 1.3 | 5%
CC(=O)C1CCC2C3CCC4=CC(=O)C=CC4(C)C3C(=O)CC12C (configuration not stated) | 4.9 | nt | 12 | 1% | nt | -60%[inhibitor]
Cc1ccccc1C(=O)NCC(c1ccco1)N1CCc2ccccc2C1 (configuration not stated) | 0.3 | 1.6% | 2 | 8% | nt | -41%[inhibitor]
CC(=O)Nc1cccc(/C(C)=N/NC(=S)NC(C)C)c1 | 0.5 | -2.3% | 18 | -3% | -3.1 | -8%[15.4 µM]
Cc1cccc(CSCc2ccc(C(=O)NCCc3ccccc3)o2)c1 | 2.6 | -0.3% | 17 | nt | nt | nt
COc1ccc(N2CCN(C(=O)CN(C)S(=O)(=O)c3cccs3)CC2)cc1 | -0.3&-0.7 | -4.9% | -12&15 | -5% | 0.1 | -13%[15.4 µM]
CCC1(c2ccccc2)NC(=O)N(CC(=O)Nc2ccc(N3CCOCC3)cc2)C1=O (configuration not stated) | 2.0 | -3.8% | 4 | 2% | nt | 29%
COc1ccccc1/C=C1\SC(=O)N(CCC(=O)N(C)C2CCS(=O)(=O)C2)C1=O (configuration not stated) | -0.8 | -0.7% | -1 | -20% | nt | ?
CCCc1ccc(C2Sc3ccccc3NC3=C2C(=O)c2ccccc23)cc1 (configuration not stated) | -0.9 | -1.8% | -3 | nt | nt | nt
CN(C)/C=C1\C(=O)N(c2ccc([N+](=O)[O-])cc2)N=C1c1ccccc1 | 0.5 | -3.5% | 11 | -7% | 8.6 | 0%
CN(C)C(=O)c1ccc(S(=O)(=O)NCc2ccccc2Cl)s1 | -0.6 | -0.2% | -24 | nt | nt | nt
C=C(C)CNC(=S)N/N=C(\C)c1ccc(Cl)s1 | 1.1 | -2.2% | -8 | 0% | nt | 2%
COc1ccc2c(c1)c(C)cc[n+]2Cc1ccccc1 | -0.1 | 4.0% | 14 | 3% | 0.2 | ?
CC(C)C(=O)NC(=S)Nc1ccc(S(=O)(=O)NC(C)(C)C)cc1 | 4.2 | -1.0% | -6 | 4% | 2.0 | 2%
O=C(CN(c1ccccn1)S(=O)(=O)c1ccccc1)N/N=C/c1cccc([N+](=O)[O-])c1 | 0.3 | -21% | -9 | 18% | -1.4 | 16%
O=C1c2ccccc2C(Nc2ccc3c(c2)OCCO3)N1Cc1ccco1 (configuration not stated) | 2.0 | 0.8% | 16 | ? | -1.8 | 5%
O=C(CCNS(=O)(=O)c1ccc(Cl)cc1)NCc1ccccn1 | 0.4 | 0.1% | 0 | 3% | 2.1 | -7%
Cc1cnc(C)c(N2CCN(Cc3nc(-c4ccc(C)o4)oc3C)CC2)n1 | -1.6 | -1.0% | -15 | -19% | 0.8 | 10%[15.4 µM]
CSCC[C@H](NC(=O)Nc1ccc(S(N)(=O)=O)cc1)C(=O)O | nt | -0.5% | nt | -5% | 1.4 | ?
Cc1ccc(NS(=O)(=O)c2cc(C(=O)N3CCN(C)CC3)ccc2C)cc1C | 0.7 | nt | 14 | -6% | 2.1 | 0%
CC(C)CN(C(=O)CSc1nc2ccccc2c(=O)n1C)C1CCS(=O)(=O)C1 (configuration not stated) | 2.5 | -0.8% | -3 | -1% | nt | -4%
CCCN1CCN(C(=O)CCCNC(=O)Cn2cnc3sc(C)c(C)c3c2=O)CC1 | 2.2 | -0.1% | 20 | 16% | -3.0 | ?
CCn1ncc(C(=O)Nc2ccc(S(=O)(=O)N3CCCC3)cc2)c1C | -0.4 | 0.3% | -7 | -5% | 1.0 | -44%[inhibitor]
COc1cccc(NC(=O)C2CSC3(C)CCC(=O)N23)c1 (configuration not stated) | -0.1 | -0.3% | 26 | 14% | nt | -1%

3 entries already listed, arranged by the value under TRPML1 blocker, highest first:
SMILES	TRPML1 blocker
CCn1c(-c2csc(C(C)C)c2)n[nH]c1=S	19
CCOCCCN(C(=O)CCC(=O)Nc1cc(C)on1)C(C(=O)NC(C)(C)C)c1ccccc1Cl (configuration not stated)	-2
COc1ccccc1-c1sc2cc3c(cc2c1-c1ccc2c(c1)OCO2)OCO3	-19

(continued)
SMILES | TRPML1 agonist | ClpP mod | TRPML1 blocker | gsp antagonist | Menin MLL FP FL | gsp agonist
CCC(C)NC(=O)c1ccc(N2CCC3(CC2)OCCO3)c([N+](=O)[O-])c1 (configuration not stated) | 0.2 | -1.4% | -2 | -3% | 0.0 | -4%
CN(C(=O)c1ccncc1)c1ccccc1 | -0.1 | -1.7% | 6 | -10% | 0.4 | -8%
COc1cc(C2NC(=O)c3c(sc4c3CCN(C)C4)N2)cc(OC)c1OC (configuration not stated) | 0.5 | 3.8% | 56 | nt | nt | nt
O=C(NCc1ccccc1)c1ccc2c(c1)OCCO2 | -0.2 | -1.9% | 10 | 17% | -0.5 | 8%
CCCCNc1ncnc2sc3c(c12)CCN(CCC)C3 | nt | 4.0% | nt | 1% | 16 | ?
Cc1cc(C)n(-c2ccc(C(=O)OCC(=O)NC(c3ccccc3)c3ccccc3)cc2)n1 | 1.6 | -1.7% | 3 | 13% | nt | -16%
N#Cc1cn(CC(=O)O)c2ccccc12 | -0.3 | -6.0% | -1 | -3% | 0.7 | 10%
CC1=CN2C(=NC(=O)CC2(C)C(=O)N(CC(=O)NC2CCCC2)c2cc(C)cc(C)c2)C=C1 (configuration not stated) | 2.7 | 4.6% | 46 | 10% | -0.8 | -18%
CCCN(CC(=O)Nc1ccccc1OC)C(=O)c1cnc(Cl)c(Cl)c1 | 0.6 | nt | -3 | -5% | 2.0 | ?
COc1ccc(NC(=O)CCOc2ccccc2F)cc1S(=O)(=O)N1CCCCC1 | 2.6 | nt | 13 | -23% | nt | 19%
O=C(NCc1ccco1)c1cc([N+](=O)[O-])ccc1Cl | 0.4 | nt | 26 | 15% | 2.0 | 6%[15.4 µM]
COc1ccc(/C=C(\NC(=O)c2ccco2)C(=O)NCc2ccco2)cc1 | -0.6 | nt | 1 | 13% | 0.6 | -21%[15.4 µM]
C=CCN1C(=O)C(CC(=O)Nc2ccccc2)N(Cc2ccccn2)C1=S (configuration not stated) | 1.7 | nt | 12 | -5% | -1.0 | 16%
